Source: PubChem BioAssay (National Center for Advancing Translational Sciences (NCATS))
Anthrax LT inh: qHTS Assay for Anthrax Lethal Toxin Internalization | Cells, anthrax lethal toxin internalization, FRET ratio (460/530) | Potency, µM (doses to about 40 µM), for inactives: at the top dose activity change, negative = inhibition, usual class: inhibitors | hit rate 0.67% among 70,000 | AID 912, 2007; active = well fitted falling ratio curve with the 530 nm signal flat; inconclusive = other ratio curves, or a change in one channel alone; inactive = flat curves in the ratio and both channels; the % refers to the ratio; further: on the % scale 0 is the no-effect control and ±100 the full control effect; nearly all actives have a fitted effect of over 50% in size; tested in ME-180 cells; beta-lactamase reporter
SmPrx2 inh: Schistosoma Mansoni Peroxiredoxins (Prx2) | AID 448, 2006 | Potency, µM | hit rate 0.07% among 65,000 | S. mansoni Prx2 activity coupled to TGR/GSH (TGR is thioredoxin glutathione reductase), NADPH fluorescence loss, qHTS; some inactives read as strong as hits; active means full or partial inhibition curve with a strong effect at the top dose; inconclusive means weaker partial or single-point curve; inactive means no accepted curve; further: series up to 57 µM; many of its hits are not listed in these tables
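Prx2 activity was followed as the loss of NADPH fluorescence (ex 365/em 450 nm), read every 30 sec for 8 min after H2O2 start. The enzyme mix (50 nM Prx2, 25 nM TGR, GSH, NADPH; pH 7.4 phosphate buffer) was incubated with compound for 15 min at room temperature first.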
* hit, by the source's call; u = inconclusive; x = not tested or not shown; [ ] = dose if it differs, or a comment. Potency means the concentration at half of the fitted maximal effect. Not all compounds are listed. The share of hits here may be higher or lower than overall.

SMILES	Anthrax LT inh	SmPrx2 inh
Cc1nnc(N(C)C(=O)c2cccnc2)s1	3%	>57
CN(c1ccccc1C(=O)O)S(C)(=O)=O	-16%	>57
CC1(C)Cc2c(sc3c2c(=N)n(Cc2ccco2)c(=O)n3CC(=O)Nc2ccc(Cl)cc2)CO1	x	>57
COc1cc(NC(=O)C2CCCCC2)c(OC)cc1NC(=O)CN1CCCCC1	0%	>57
Cc1ccc(OCc2nnc(SCC(=O)Nc3ccc4c(c3)OCCO4)n2Cc2ccco2)cc1	u	>57
O=C(NCCN1CCOCC1)c1ccc(-c2ccccc2)cc1	2%	>57
N#Cc1nc(COc2ccccc2)oc1N1CCN(Cc2ccccc2)CC1	-14%	>57
CN(C)c1ncnc2ccc(-c3ccoc3)cc12	-13%	>57
CCOCCCNC(=O)Cc1cc(=O)[nH]c(=O)[nH]1	15%	>57
COc1cc(C(=O)OCn2nnc3ccccc3c2=O)cc(OC)c1OC	-9%	>57
COc1cccc(Cn2c(=O)c(CCc3ccccc3)nc3cnc(N4CCNCC4)nc32)c1	u	>57
COCCNC(=O)C(c1ccc(C)o1)N(Cc1cccs1)C(=O)c1snc(C(N)=O)c1N (stereo not given)	2%	>57
CCCc1cc(=O)n2[nH]c(C)c(-c3ccccc3)c2n1	-27%	u
CC(C(=O)c1c[nH]c2ccccc12)N1CCc2ccccc2C1 (stereo not given)	-5%	>57
O=C(O)C=C1C2CC3CC(C2)CC1C3	-1%	x
CC(=O)N1CCN(CCN=CC2=C(O)CC(c3cccs3)CC2=O)CC1 (stereo not given)	2%	x
CCCC(c1c(C)n(C)n(-c2ccccc2)c1=O)c1c(C)n(C)n(-c2ccccc2)c1=O	u	x
CCOCCCNC(=O)C1CCCCN1S(=O)(=O)c1ccc(F)cc1 (stereo not given)	4%	>57
Cc1onc(-c2ccccc2Cl)c1C(=O)OCC(=O)c1ccc2c(c1)OCCO2	-27%	>57
CNCCOCC(O)CSc1ccccc1 (stereo not given)	u	x
COc1ccccc1CNc1ncncc1-c1ccoc1	-19%	>57
CCSCCOC(=O)C1=C(C)NC(=O)NC1c1cc(OC)ccc1OC (stereo not given)	1%	>57
Cc1ccc(C(=O)C2=C(O)C(=O)N(CCCN(C)C)C23C(=O)N(C)c2ccccc23)o1 (stereo not given)	-19%	>57
Cc1cccc(NC(=O)CSc2nc3c(c(=O)[nH]2)CCC3)c1C	17%	>57
O=c1cc(N2CCC(Cc3ccccc3)CC2)[nH]c(=O)n1C1CCCCC1	4%	>57

7 compounds drawn at random from the list so far:
SMILES	Anthrax LT inh	SmPrx2 inh
N#Cc1nc(COc2ccccc2)oc1N1CCN(Cc2ccccc2)CC1	-14%	>57
O=c1cc(N2CCC(Cc3ccccc3)CC2)[nH]c(=O)n1C1CCCCC1	4%	>57
CN(C)c1ncnc2ccc(-c3ccoc3)cc12	-13%	>57
CCCc1cc(=O)n2[nH]c(C)c(-c3ccccc3)c2n1	-27%	u
Cc1cccc(NC(=O)CSc2nc3c(c(=O)[nH]2)CCC3)c1C	17%	>57
COCCNC(=O)C(c1ccc(C)o1)N(Cc1cccs1)C(=O)c1snc(C(N)=O)c1N (stereo not given)	2%	>57
CN(c1ccccc1C(=O)O)S(C)(=O)=O	-16%	>57

Next section
SMILES	Anthrax LT inh	SmPrx2 inh
O=S(=O)(CCSc1ccccn1)c1nc2ccccc2s1	0%	>57
Cc1cc(C)c(OCC(=O)Nc2nnn(C)n2)c(Br)c1	-8%	>57
CC1=C(C(=O)OCc2ccccc2)C(c2ccccc2)NC(=O)N1CCCCCC(=O)O (stereo not given)	-6%	u
CC(=O)c1cc(C#N)c(SCC(=O)OC(C)C)nc1C	-14%	>57
CN(CC(=O)N1CCN(c2ccccn2)CC1)S(=O)(=O)c1ccc2ccccc2c1	x	>57
Cc1[nH]c2c(C(F)(F)F)cccc2c1CCN	x	>57
CCN(CC)C(=O)c1cc2cc(Br)ccc2oc1=O	-6%	>57
COC(=O)c1ccccc1S(=O)(=O)N(Cc1cc2ccc(OC)cc2[nH]c1=O)CC1CCCO1 (stereo not given)	2%	>57
CN1CC[C@@]2(CCCN(S(=O)(=O)c3ccccc3)C2)C1	-23%	>57
CCC(=NCc1ccco1)c1c(O)[nH]c(=O)[nH]c1=O	u	>57
CCOCC(=O)NCc1ccc2c(c1)OCO2	u	>57
[O-]/[N+](=C\c1ccccc1)[C@@H]1CCCC[C@@H]1/[N+]([O-])=C/c1ccccc1	-15%	>57
O=C(CN1CCN(S(=O)(=O)c2ccc(F)cc2)CC1)Nc1cccc(C(F)(F)F)c1	-29%	>57
COc1ccc(Cl)cc1Nc1nc(NCCO)nc(N2CCCC2)n1	-6%	>57
CC(=O)c1cnc(N2CCCCC2)nc1C	14%	>57
Nc1c(S(=O)(=O)c2cccs2)c2nc3ccccc3nc2n1/N=C/c1cccc(O)c1	5µM*	>57
Cc1ccnc(NC(=O)CCC(=O)N(CC(=O)NC2CCCCC2)c2cccc(C)c2C)c1	2%	>57
COCCCn1c(SCC(=O)NC(C)(C)C)nnc1-c1ccccc1	-8%	>57
CCCCCOC(=O)c1cc(=O)[nH]c2ccccc12	-2%	>57
Cc1ccc2c(c1)[nH]c1c(=O)n(CCN3CCCCC3)cnc12	9%	>57
Cn1c(=O)c2c(ncn2CC(=O)N2CCOCC2)n(C)c1=O	-2%	x
COc1ccc(C(=O)NCCn2cc(SCC(=O)Nc3nnc(C)s3)c3ccccc32)cc1	15%	>57
Cc1ccc(S(=O)(=O)N2CCC(C(=O)N3CCC4(CC3)OCCO4)CC2)cc1	-1%	>57
O=C(NC1CCCCCCC1)C1CCC(CNc2c(N3CCCC3)c(=O)c2=O)CC1 (stereo not given)	u	>57
Cc1nnc(NC(=O)CCSc2ccccc2)s1	6%	>57

New compounds follow.
SMILES	Anthrax LT inh	SmPrx2 inh
Cc1ccc(S(=O)(=O)NCC(c2cccnc2)N(C)C)cc1 (stereo not given)	-2%	>57
O=C(C1CCN(S(=O)(=O)N2CCOCC2)CC1)N1CCN(Cc2ccc3c(c2)OCO3)CC1	12%	>57
Cc1ccc(S(=O)(=O)NCC2CCC(C(=O)NCCCN3CCOCC3)CC2)cc1 (stereo not given)	4%	>57
O=C(O)c1cc(Cl)cc(Cl)c1	4%	x
Cc1nc2ccccn2c1P(=Nc1ccccc1)(N(C)C)N(C)C	2%	>57
CCN(CC)C(=O)COc1ccc(Br)cc1Cl	-11%	>57
COc1ccc(-c2cc(C(F)(F)F)n3nc(C(=O)Nc4cc(C)on4)cc3n2)cc1OC	4%	>57
CN(C(=O)c1ccncc1)c1nnc(-c2cccnc2)s1	8%	>57
Nc1nonc1-n1nnc(C(=O)O)c1-c1cccs1	2%	>57
Cc1ccc(N2C(N)=C(C#N)C(c3cccnc3)C3=C2CCCC3=O)cc1 (stereo not given)	u	>57
CC(C)(COCC1CO1)COCC1CO1 (stereo not given)	12%	x
CCOC(=O)C1=C(C)OC(N)=C(C(=O)OC)C12C(=O)Nc1ccc(Br)cc12 (stereo not given)	-3%	>57
Cc1cc(C)nc(NCC(O)CNc2ccccc2Cl)n1 (stereo not given)	-7%	>57
Cc1cc(NC(=O)c2cc(C)on2)no1	0%	>57
O=C(O)c1ccc(CN(c2ccccn2)S(=O)(=O)c2ccccc2)cc1	-1%	x
COC(=O)C1C(=O)CC(C)(O)C(C(=O)OC)C1c1ccc2c(c1)OCO2 (stereo not given)	-4%	x
CCCOc1ccc(C2c3c(oc4cc(C)c(C)cc4c3=O)C(=O)N2CCCN2CCOCC2)cc1 (stereo not given)	4%	>57
Cc1cc(C(F)(F)F)nc(SCC(=O)Nc2ccccc2)n1	-13%	>57
O=C(CN1CCN(S(=O)(=O)c2cc(Cl)ccc2Cl)CC1)Nc1ccc2c(c1)OCCO2	u	>57
CCCCc1c(O)n2c(nc3ccccc32)[nH]c1=O	x	>57
COCc1nnc(NS(=O)(=O)c2ccc(Br)cc2)s1	0%	>57
CCCn1c(O)c(CN2CCCCC2)c(C)c(C#N)c1=O	-8%	>57
COc1ccc(CNc2ccnc(-c3cccnc3)n2)c(OC)c1	5%	>57
Cc1onc(-c2ccccc2)c1C(=O)N1CCCN(C(=O)c2c(-c3ccccc3)noc2C)CC1	-20%	>57
COc1ccc(CNC(=O)CS(=O)Cc2nc(-c3ccc(C)cc3)oc2C)cc1 (stereo not given)	-25%	>57

Other structures
SMILES	Anthrax LT inh	SmPrx2 inh
O=c1n(-c2cccc(Cl)c2)c(=O)n2n1CCC2	0%	>57
CCOC(=O)Cc1csc(NC(=O)COc2ccc(N(C)S(=O)(=O)c3cccs3)cc2)n1	u	>57
CCOC(=O)CCc1nc2ccccc2[nH]c1=O	-1%	>57
O=C(Oc1ccc(Cl)c2cccnc12)N1CCOCC1	2%	>57
CC(SCc1ccccc1)C(=O)NC1CCCC1 (stereo not given)	-16%	>57
Cn1c(=O)c(-c2ccc(Cl)cc2)nc2cnc(N3CCOCC3)nc21	-6%	>57
O=C(c1ccco1)n1nc(-c2ccc(Cl)cc2)nc1NCc1ccco1	u	>57
CCOC(=O)N1CCC(NC(=O)CCN2C(=O)COc3ccccc32)CC1	6%	>57
CCOc1ccc(NC(=O)CSc2nc3c(c(=O)n2-c2ccccc2OC)SCC3)cc1	-15%	>57
O=S(=O)(NCCOc1ccc(F)cc1)c1ccc2c(c1)OCCO2	-23%	>57
CCOC(=O)N1CCN(C(=O)CSc2ccccc2)CC1	-5%	>57
O=C(CSc1ccc2nnc(-c3ccncc3)n2n1)N1CCc2ccccc21	12%	>57
c1ccc(Nc2ccc3ccccc3c2)cc1	u	x
Oc1ccccc1C1=Nc2ncnn2C(c2ccccc2)C1 (stereo not given)	-5%	>57
COc1cccc2cc(C(=O)NC(C)C3CCCO3)c(=O)oc12 (stereo not given)	2%	>57
O=C(NCC1CCCO1)c1c(O)c2c([nH]c1=O)CCCC2 (stereo not given)	5%	>57
CNc1oc(-c2cccc3ccccc23)nc1C#N	u	>57
COC(=O)c1cc2c([nH]c3ccccc32)c(C)n1	-8%	>57
COc1ccc2[nH]c(-c3ccccc3)c(CCNC(C)=O)c2c1	u	>57
COc1ccc(OC)c(CNC(=O)C2CCN(C(=O)N(C)C)CC2)c1	2%	>57
NS(=O)(=O)c1ccc(S(=O)(=O)NCCc2ccccc2)cc1	-20%	>57
CCCOc1ccc2oc(=O)c3c(c2c1)CCCN3C(=O)CN1CCCC(C(=O)OCC)C1 (stereo not given)	-3%	>57
COc1ccc(OC)c(N/C(=N\c2nc(C)cc(C)n2)NC(=O)c2ccco2)c1	u	>57
Cc1cccc(C)c1NC(=O)Nc1cccs1	u	>57
O=C(c1ccco1)N1CCC2(CC1)CCN(c1ccccn1)CC2	u	>57

Compound profiles (already shown).
Results for O=C(CSc1ccc2nnc(-c3ccncc3)n2n1)N1CCc2ccccc21 → Anthrax LT inh = 12%; SmPrx2 inh = >57
Results for O=C(Oc1ccc(Cl)c2cccnc12)N1CCOCC1 → Anthrax LT inh = 2%; SmPrx2 inh = >57

Further records follow.
SMILES	Anthrax LT inh	SmPrx2 inh
CN(C)c1ncc2nc(-c3cc(F)cc(F)c3)c(=O)n(C3CC3)c2n1	u	>57
Cc1cccc(C)c1OCC(O)Cn1ccnc1C (stereo not given)	-8%	>57
CC(C)Cn1cnc2c(SCc3ccccn3)nc(N)nc21	-11%[8 µM]	>57
C=CCN1C(=O)C(O)(CC(=O)c2ccc(-n3cccc3)cc2)c2ccccc21 (stereo not given)	u	x
C[N+](C)(C)CCNC(=O)c1c(O)c2c([nH]c1=O)CCCC2	3%	>57
CCOC(=O)N1CCN(C(=O)Nc2ccc3oc(C)nc3c2)CC1	13%	>57
Cc1cccc2cc(C(c3nnnn3Cc3ccccc3)N3CCN(C)CC3)c(=O)[nH]c12 (stereo not given)	6%	>57
CCS(=O)(=O)N1CCC(C(=O)OCC(=O)c2ccc(Br)cc2)CC1	5%	>57
Cc1[nH]cnc1CCN	-10%	x
O=C(NCCCN1CCOCC1)c1ccco1	6%	x
CCN1CCN(Cc2ccc(C)cc2C)CC1	u	>57
Cc1cccc(OCCCn2ccnc2)c1	3%	>57
COc1ccc(CN2CC3CC(C2)c2cccc(=O)n2C3)cc1OC (stereo not given)	1%	x
Nc1ncnc2nc(SCCN3CCCCC3)[nH]c12	-2%	>57
CC1=C(C(=O)N(C)CCC#N)C2(CCCCC2)OC1=O	4%	>57
Cn1c(O)c(C(=O)c2ccccc2)c(=O)n(C)c1=O	-10%	x
CCc1ccccc1N1CCN(S(=O)(=O)c2cc(OC)ccc2OC)CC1	-20%	>57
C=CCOc1ccc(C2C(C(=O)c3ccco3)=C(O)C(=O)N2CCCN(CC)CC)cc1 (stereo not given)	x	>57
CCOc1ccc(NC(=O)c2ccc3c(c2)N(Cc2ccc(F)cc2)C(=O)CS3=O)cc1 (stereo not given)	u	>57
O=C(CCCc1nc(-c2ccc(Cl)cc2)no1)N1CCOCC1	-1%	>57

Part of the list above, reformatted.
CCCOc1ccc(C2c3c(oc4cc(C)c(C)cc4c3=O)C(=O)N2CCCN2CCOCC2)cc1 (stereo not given)
- Anthrax LT inh = 4%
- SmPrx2 inh = >57
N#Cc1nc(COc2ccccc2)oc1N1CCN(Cc2ccccc2)CC1
- Anthrax LT inh = -14%
- SmPrx2 inh = >57
CCOC(=O)C1=C(C)OC(N)=C(C(=O)OC)C12C(=O)Nc1ccc(Br)cc12 (stereo not given)
- Anthrax LT inh = -3%
- SmPrx2 inh = >57
O=C(CSc1ccc2nnc(-c3ccncc3)n2n1)N1CCc2ccccc21
- Anthrax LT inh = 12%
- SmPrx2 inh = >57
